UUG fidelity = modulators of start codon recognition fidelity in yeast; S. cerevisiae UUG-firefly luciferase reporter, luminescence/redox ratio; activity score, % at 18.7 µM; 350,000 compounds, 0.13% hits; AID 602363;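 active = replicate mean at a twofold rise or more, about +100% in these data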;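 note: firefly luciferase made from a UUG start codon reports start codon fidelity; reporter light over untreated wells divided by growth signal over untreated wells; some hits fall short of that in this replicate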
Rce1 inh = yeast Ras-converting enzyme inhibition; AID 2563; Q03530; 290,000 compounds, 0.27% hits; calls only; yeast membranes, quenched prenylated peptide cleavage fluorescence;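 active = fall in fluorescence gain of 50% or more versus controls, with final raw signal at or below 3038400; inconclusive = same 50% fall but final raw signal above 3038400; inactive = fall in fluorescence gain under 50%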;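 note: plate controls were neutral control wells for no effect and wells lacking membranes for full effect; tested at 10 µM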
eIF4H FP inh = inhibitors of RNA binding by human eIF4H | Q15056 | eIF4H fluorescence polarization binding assay | inhibition, % at 35 µM | 290,000 compounds, 0.94% hits;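 active = 50% or more with normal probe brightness, or confirmed in later tests; inconclusive = above 50% with abnormal brightness, or retests that disagree; inactive = below 50% or failed in later tests; about a fifth of its hits are not listed in these tables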;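 note: calls also rest on retests at 20 µM and on dose response follow-up; 0% = protein and probe with vehicle and 100% = probe without protein; strong numbers were not always called active; many hits fall short of the cut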
HIV Env fusion = inhibitors of HIV Env-mediated cell fusion; HeLa-JRFL Env/CEM21 cell fusion, luciferase; 360,000 compounds, 1.1% hits; AID 651610; inhibition, % at 12.3 µM;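 active = mean replicate inhibition score of at least 50 and every replicate individually at or above 50; inconclusive = only one of the two criteria met; inactive = mean below 50 and not all replicates reaching 50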;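 note: 0% = plate neutral controls and 100% = maraviroc near 300 nM; one replicate is shown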
MT1-MMP act inh = blocks activation of human MT1-MMP; HT1080 RFP-PRO-GFP cells, GFP/RFP ratio fluorescence, overnight; percent of plate control window, DMSO zero; GFP/RFP ratio change, % at 20 µM; 360,000 compounds, 0.061% hits;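 active = GFP/RFP ratio change of at least 30% with cell ATP level not reduced by more than half and red fluorescence within 50% of control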; note: strong numbers were not always called active
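Material: RFP-PRO-GFP reporter HT1080 cells. Dosing: single-point 20 µM compound, 1% DMSO. Controls: DMSO and RFP-L50D-GFP cell wells. Timing: cells overnight before dosing, compound overnight, 37 °C, 5% CO2. Measure: GFP/RFP fluorescence ratio.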
PABP FP inh = blocks human PABP binding to poly(A) RNA | P11940 | fluorescence polarization | inhibition, % at 35 µM | 290,000 compounds, 1% hits | AID 2014;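 active = 50% or more with normal probe brightness, or confirmed in later tests; inconclusive = above 50% with abnormal brightness, or retests that disagree; inactive = below 50% or failed in later tests; about a fifth of its hits are not listed in these tables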;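 note: calls also rest on retests at 20 µM and on dose response follow-up; controls were probe without protein and protein plus probe with vehicle; some compounds called inactive have numbers as strong as hits; many hits fall short of the cut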
Target sequence (P11940 whole entry, looked up): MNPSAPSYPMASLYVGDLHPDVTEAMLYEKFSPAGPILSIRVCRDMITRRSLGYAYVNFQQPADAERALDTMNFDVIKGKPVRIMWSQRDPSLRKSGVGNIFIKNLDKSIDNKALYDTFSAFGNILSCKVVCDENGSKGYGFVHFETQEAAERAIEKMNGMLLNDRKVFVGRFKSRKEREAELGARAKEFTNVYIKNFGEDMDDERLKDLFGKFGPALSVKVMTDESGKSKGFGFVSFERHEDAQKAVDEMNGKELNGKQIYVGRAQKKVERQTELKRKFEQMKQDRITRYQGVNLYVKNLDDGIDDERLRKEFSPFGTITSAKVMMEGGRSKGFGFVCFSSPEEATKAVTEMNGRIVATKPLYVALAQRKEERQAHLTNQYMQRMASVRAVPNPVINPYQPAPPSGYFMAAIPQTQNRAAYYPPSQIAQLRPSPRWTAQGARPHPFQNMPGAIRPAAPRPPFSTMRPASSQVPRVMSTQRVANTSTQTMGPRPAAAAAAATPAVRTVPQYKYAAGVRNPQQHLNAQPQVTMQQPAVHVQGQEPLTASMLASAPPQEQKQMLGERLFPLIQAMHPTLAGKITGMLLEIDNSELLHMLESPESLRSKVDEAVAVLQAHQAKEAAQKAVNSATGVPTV
CSC inhib = blocks cancer stem cells; cancer stem cell-like cells viability, luminescence; inhibition, % at 7.5 µM; AID 2717; 300,000 compounds, 1.1% hits;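 active = mean at 75% or more and at least half the replicates too; inconclusive = mean and replicates disagree; tested in HMLE shEcad cells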;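 note: 0% = median of negative and 100% = median of positive control wells; the first replicate is given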
eIF4H FP inh retest = further read-out of eIF4H FP inh, marked with its call; inhibition, %; compound at 20 µM; confirmation average;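 mean of two retest wells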
PABP FP inh retest = second read-out of PABP FP inh, no call of its own (marks repeat the call); inhibition, %; compound at 20 µM; confirmation repeats;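 mean of two retest wells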
MT1-MMP act inh RFP = second read-out of MT1-MMP act inh, no call of its own (marks repeat the call); RFP signal change, %; measured here: RFP expression control read;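 0 = vehicle wells; hits needed this value within 50% of zero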
Starred values were filed as active, the others as inactive; i = inactive; ? = inconclusive; nt = no result given.

SMILES | UUG fidelity | Rce1 inh | eIF4H FP inh | HIV Env fusion | MT1-MMP act inh | MT1-MMP act inh RFP | PABP FP inh | CSC inhib | others
CCONC(=O)Nc1ccccc1 | nt | i | -9.6 | 1.2 | -0.4 | 2.2 | -20.4 | -10.3
CCn1ncc(C2=NOC(C(=O)Nc3cccnc3)C2)c1C (stereo unspecified) | -19.1 | i | 6.7 | -10.0 | -0.4 | -1.7 | 1.8 | -6.2
O=C(/C=C/c1ccc(OCc2cccc(Cl)c2)cc1)N1CCOCC1 | nt | i | -3.8 | 3.5 | -0.2 | -9.0 | 1.7 | nt
COC(=O)c1ccccc1NC1CC(=O)N(c2c(C)cccc2C)C1=O (stereo unspecified) | nt | i | -3.4 | 10.7 | -4.1 | 3.6 | -4.7 | 4.3
NC(=O)NOCc1ccc(F)cc1Cl | -13.7 | nt | -6.1 | -25.4 | 1.4 | 0.3 | 3.9 | 19.9
COc1ccc(/C=C/C(=O)c2c(O)cc(C)oc2=O)c(OC)c1 | -4.2 | i | ? | nt | -63.5 | 10.5 | 57.5* | 30.8 | PABP FP inh retest=80.9*
CCN(C(=O)CN1CCN(c2ccccc2OC)CC1)c1c(N)n(Cc2ccccc2)c(=O)[nH]c1=O | -18.6 | i | 6.2 | 9.1 | 2.5 | 4.4 | 5.8 | nt
Cc1ccc(NC(=O)c2cc3nc(C)cc(C)n3n2)cc1 | -33.8 | i | 1.0 | -160.9 | -1.7 | -0.4 | -7.0 | nt
COc1ccc(CCCc2nnc(SCC(=O)Nc3cc(C)ccc3C)o2)cc1 | 8.9 | i | -13.5 | nt | 1.6 | -4.3 | 1.0 | -8.2
Cc1ccc2c(c1)N(CC(=O)NC1CCC(C)CC1)C(=O)c1cccnc1O2 (stereo unspecified) | -3.9 | i | -5.7 | -8.4 | -0.1 | -0.9 | -7.6 | nt
COc1ccccc1C(=O)Nc1ccc(OC(C)C(=O)N2CCOCC2)cc1 (stereo unspecified) | -8.3 | nt | nt | 5.3 | -3.1 | -2.9 | nt | 6.0
Cc1cc[n+](C2=C([O-])c3ccccc3C(=O)/C2=N\S(=O)(=O)c2cccs2)cc1C | 446.3* | i | 8.4 | -8.1 | 2.6 | 3.7 | 12.1 | -11.6
CCCn1cc(CN2CCC(n3nccc3NC(=O)C(OC)c3ccccc3)CC2)c(C)n1 (stereo unspecified) | -15.2 | i | -1.5 | -3.1 | 1.3 | 8.1 | -2.1 | -3.9
O=C(c1ccccc1)C1C(=O)c2ccccc2C1=O | nt | i | 8.4 | nt | -194.6 | 27.2 | 9.1 | -4.7
COc1cc(C2C(C(=O)c3ccc(C)o3)=C(O)C(=O)N2CCc2ccccc2)ccc1O (stereo unspecified) | -11.2 | i | 6.8 | nt | -1.8 | 0.1 | 2.3 | 2.4
COc1cccc(N2CCN(C(=O)c3[nH]c(C)c(C(C)=O)c3C)CC2)c1 | 78.3 | i | 1.7 | 9.0 | -1.2 | -11.3 | -0.7 | -9.3
COc1ccc(C(=O)NC(=S)Nc2nc(C)cc(C)n2)cc1Br | -14.3 | i | -4.3 | -7.0 | 0.4 | -1.8 | -10.1 | -2.8
COc1cccc(C(=O)Oc2ccc3c(C)cc(=O)oc3c2C(C)=O)c1 | -18.0 | i | 2.6 | 29.9 | -5.0 | 1.0 | -2.7 | -4.8
CCOc1ccc(NC(=O)CCc2ccc(C)o2)cc1 | -34.6 | i | -20.8 | -3.4 | 2.6 | 5.8 | 3.8 | 2.1
CC(C)c1ccc(CC(=O)N2CCC2(C)C(=O)NS(=O)(=O)c2cccc(C#N)c2)cc1 (stereo unspecified) | -13.4 | nt | nt | 10.4 | 3.1 | 6.1 | nt | nt
COc1ccc(/C=C/C(=O)Nc2ccc(-n3nncc3-c3ccc(OC)c(OC)c3)cc2)cc1OC | -10.9 | i | 0.5 | -14.3 | -2.3 | -5.2 | -13.6 | 33.0
O=C(NCc1cccc(C(F)(F)F)c1)c1ccc[nH]1 | -10.6 | i | -5.1 | 13.3 | 3.0 | 1.1 | -7.2 | -6.7
CN1CCc2ccccc2Cc2[nH]c3ccccc3c2CC1 | -3.0 | nt | nt | 70.9* | -5.4 | 0.4 | nt | -15.1
CC(C)CN(C(=O)COc1ccccc1C(=O)NCc1ccccc1)C1CCS(=O)(=O)C1 (stereo unspecified) | 10.7 | nt | nt | 19.9 | -1.3 | 0.3 | nt | nt
C=CCNC(=O)Nc1cc(Cl)ccc1OC | nt | i | 0.8 | -0.2 | 2.3 | 2.0 | -2.5 | -9.7

(more compounds)
SMILES | UUG fidelity | Rce1 inh | eIF4H FP inh | HIV Env fusion | MT1-MMP act inh | MT1-MMP act inh RFP | PABP FP inh | CSC inhib | others
COc1cc(NC(=O)c2cccs2)c(C(=O)OCC(=O)NCc2ccco2)cc1OC | -28.4 | i | 89.4* | nt | 1.8 | 3.4 | 61.6* | 14.3
CCOC(=O)C1CCN(CC(=O)Nc2ccc(OC)c(S(=O)(=O)N3CCCCC3)c2)CC1 | 4.1 | nt | nt | nt | 0.6 | -0.2 | nt | -15.3
Cc1ccc(CNC(=O)CSc2nc3ccsc3c(=O)n2NC(=O)c2ccccc2)cc1 | 13.2 | i | -0.4 | 28.7 | -5.5 | -1.4 | 6.0 | -3.6
COc1cccc(C(=O)Nc2nc3c(s2)CN(C)CC3)c1 | -22.1 | i | -7.9 | nt | -3.7 | 0.0 | -8.8 | -15.0
O=c1oc(-c2ccc(Br)cc2)nc2ccccc12 | -17.8 | i | -8.5 | -97.9 | -2.1 | -2.4 | 11.9 | -10.0
CC(=O)Cc1nsc(Nc2ccc3c(c2)OCCO3)n1 | nt | i | -9.9 | nt | 4.9 | 1.9 | -9.0 | 12.0
Fc1ccccc1-c1nc(-c2ccccc2)no1 | -11.6 | i | -5.0 | -402.5 | -5.9 | 2.6 | -10.3 | 1.3
Cc1cc2c(ncn2C)c(NS(=O)(=O)c2cc(Cl)ccc2Cl)c1C | -14.1 | i | -13.3 | -34.7 | -1.4 | -4.7 | -2.4 | 18.8
CCS(=O)(=O)N1CCC(C(=O)NCc2ccccc2OC)CC1 | -12.1 | i | -0.3 | nt | -2.3 | 2.8 | -0.5 | -12.5
Nc1nc(-c2cccnc2)nn1C(=O)Cc1ccccc1 | -20.2 | i | -9.4 | -41.7 | -0.8 | 3.1 | -5.2 | -11.2
CCCNC(=O)C1(C)CCCN(C(=O)c2cc(F)ccc2C)C1 (stereo unspecified) | -3.6 | nt | nt | -34.3 | 4.0 | -0.5 | nt | nt
CC(=O)c1ccc(Nc2nc(C(N)CCc3ccccc3)cs2)cc1 (stereo unspecified) | -5.2 | nt | nt | 15.0 | -6.8 | -10.7 | nt | nt
CCN(CC)S(=O)(=O)c1ccc(N2CCN(CCO)CC2)nc1 | -17.8 | i | -6.5 | nt | -2.7 | -1.7 | 1.7 | -19.4
CCOc1ccc(NC(=O)C2CCCCN2S(=O)(=O)c2ccccc2)cc1 (stereo unspecified) | -8.6 | i | -2.5 | 7.2 | 4.6 | -3.7 | -4.8 | -12.4
COc1cc(C(=O)c2ccc3c(c2)OCO3)cc(OC)c1OC | -8.4 | nt | nt | 22.3 | 2.1 | -7.4 | nt | nt
COc1cc2c(cc1NC(=O)Cn1cnc3c1c(=O)n(C)c(=O)n3C)oc1ccccc12 | nt | i | -13.9 | nt | nt | nt | 5.9 | nt
CC(C)c1ccc(N(C)C(=O)Cc2c(C(=O)O)n(C)c3ccccc23)cc1 | -6.5 | i | -2.9 | -2.0 | -7.0 | -1.3 | -2.0 | -7.1
CCC1=NN2C(=N)/C(=C\c3ccc(OCCOc4ccc(NC(C)=O)cc4)c(OC)c3)C(=O)N=C2S1 | 4.9 | i | -10.3 | -9.4 | -7.4 | -1.7 | 0.2 | -8.3
Cc1cc(C(=O)COC(=O)c2ccc(F)cc2F)c(C)n1C1CC1 | -17.4 | nt | nt | -41.9 | -0.1 | -1.2 | nt | -8.5
COc1ccc(NC(=O)c2cc(C3CCCCN3S(=O)(=O)c3ccc(F)cc3F)on2)c(C)c1 (stereo unspecified) | -4.4 | nt | nt | 37.0 | -7.3 | -18.2 | nt | nt
CCCCN1C(=O)C(CC(=O)NCCc2ccccn2)CC(C(=O)N(C)C)=C1C (stereo unspecified) | -7.1 | nt | nt | 15.3 | 1.0 | 4.6 | nt | nt
O=C(N/N=C/c1ccccn1)c1cc(-c2ccccc2Cl)n[nH]1 | nt | i | 17.5 | -10.8 | 4.3 | 0.9 | 7.4 | 12.9
CC(=O)c1sc(NCc2ccccc2)nc1C | -17.8 | nt | -8.6 | -12.9 | -3.8 | -4.5 | 10.4 | 3.4
Cc1nn(CCCC(=O)NCc2ccc(Cl)cc2)c(C)c1[N+](=O)[O-] | nt | i | -0.7 | 11.6 | 1.0 | -0.4 | -2.8 | -2.6
Cc1c(NC(=O)C(C)OC(=O)/C=C/c2ccc(OC(F)F)cc2)c(=O)n(-c2ccccc2)n1C (stereo unspecified) | nt | i | nt | -5.9 | 1.6 | 1.7 | nt | -5.4

Next section.
SMILES | UUG fidelity | Rce1 inh | eIF4H FP inh | HIV Env fusion | MT1-MMP act inh | MT1-MMP act inh RFP | PABP FP inh | CSC inhib | others
CC(C)(C)C1(C)OC(=O)C(=Cc2ccc(OCC(=O)Nc3ccccc3)cc2)C(=O)O1 (stereo unspecified) | nt | i | -13.0 | nt | -2.0 | 2.6 | -11.9 | -0.9
O=C(NCCN1CCOCC1)c1ccc(CS(=O)(=O)c2ccc(Cl)cc2)o1 | -6.9 | i | -0.5 | nt | -4.1 | 1.3 | -9.7 | 9.8
Cn1c(SCC(=O)Nc2ccc3c(c2)n(C)c(=O)n3C)nnc1-c1ccncc1 | -11.7 | i | 69.8 | -8.2 | 2.3 | 6.6 | 14.0 | nt | eIF4H FP inh retest=7.4;PABP FP inh retest=-0.3
COc1ccccc1C(=O)NCCC(=O)N(C)CC(=O)Nc1ccccc1Br | 13.6 | i | nt | -26.6 | -0.7 | 0.4 | nt | 3.1
Cc1cc2nc(CS)[nH]c2cc1C | -16.5 | i | 14.5 | 4.5 | 2.7 | 6.2 | 12.7 | -18.1
CS(=O)(=O)N1CCN(c2ccc([N+](=O)[O-])c(NCc3ccccc3)c2)CC1 | 13.6 | i | 11.7 | nt | 0.8 | -3.9 | 11.1 | 39.8
O=C(NCCCN1CCOCC1)c1ccc2c(c1)N(Cc1cccc(Cl)c1)C(=O)c1ccccc1S2=O (stereo unspecified) | 7.3 | i | nt | -1.8 | -0.3 | -1.3 | nt | -1.2
COc1ccc2sc(-c3ccc(S(C)(=O)=O)cc3)c(C#Cc3cncn3C)c2c1 | -33.6 | nt | nt | 46.5 | -1.3 | 0.1 | nt | 45.5
O=C(O)c1cc(-c2ccco2)nc2cc3ccccc3cc12 | -12.3 | i | 100.3* | -138.2 | -9.0 | 0.2 | 77.4* | -5.4
Cc1ccc(CSCCNS(=O)(=O)c2ccccc2)cc1 | nt | i | 50.2* | -10.5 | 1.0 | 0.8 | 121.4* | -7.6
CC(C)(C)OC(=O)NCCc1nnc(SCc2ccc(Cl)cc2)o1 | 27.5 | i | -5.3 | 14.5 | 2.0 | -2.4 | -11.6 | -3.2
Cc1cc(C)n2nc3nc4c(cc3c2n1)CCCC4 | -10.6 | i | 32.2 | -55.6 | -113.3 | 8.7 | 27.3 | -12.2

No enrichment for hits, and some 2.9% of all compounds hit somewhere here.
